gsp ag – gsp mutant agonism | gsp mutant cells, cAMP HTRF, 30 min; control for the full effect not named in the record | Potency, µM (top dose mostly 76.9 µM), for the others: at the top dose activation (cAMP increase), most hits filed as activators | 340,000 compounds, 0.13% hits; active = well fitted activation curve with a large enough effect; inconclusive = small, poorly fitted or top-dose-only effect, or another doubt; inactive = no such curve, though single readings can be large or run the other way; cell line not stated here;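 also: phosphodiesterase inhibitor Ro 20-1724 added with compounds to block cAMP breakdown; potency is read from the fitted curve at half-maximal effect; nearly all actives have a fitted effect of over 60% in size; about a fifth of the inactives were tested at one dose only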
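Cells in DMEM/10% FBS with G418 were pretreated with compounds in DMSO plus […] (300 uM stock) for 30 min at 37C. cAMP was measured by HTRF (cAMP-d2 plus anti-cAMP antibody-K) after 30 min at room temperature.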
Menin-MLL FL inh – inhibitors of human menin-MLL interaction, wild-type MLL peptide; Fluorescence polarization, fluorescein-MLL peptide displacement from menin; FP activity change, % at 61.4 µM; 290,000 tested, under 10 active; inconclusive = falling polarisation curve, or a change in total fluorescence; inactive = total fluorescence flat and polarisation flat or rising; no compound was filed as active; the % refers to the polarisation; negative = inhibition;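 also: % of control where 0% means no effect; inhibitors lower the polarisation; unlabelled MLL peptide was the positive control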
D2 potentiator – positive allosteric modulators of human D2 dopamine receptor | P14416 | DiscoveRx D2 beta-arrestin cells, luminescence, 90 min; 100% = 57 uM dopamine signal | potentiation, % (concentration not given with the values) | 360,000 compounds, 0.23% hits; active = potentiation of 50% or more; inconclusive = 30% to 50%; inactive = 30% or less;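 also: tested on top of an EC20 dose of dopamine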
Target sequence (P14416 whole entry, looked up): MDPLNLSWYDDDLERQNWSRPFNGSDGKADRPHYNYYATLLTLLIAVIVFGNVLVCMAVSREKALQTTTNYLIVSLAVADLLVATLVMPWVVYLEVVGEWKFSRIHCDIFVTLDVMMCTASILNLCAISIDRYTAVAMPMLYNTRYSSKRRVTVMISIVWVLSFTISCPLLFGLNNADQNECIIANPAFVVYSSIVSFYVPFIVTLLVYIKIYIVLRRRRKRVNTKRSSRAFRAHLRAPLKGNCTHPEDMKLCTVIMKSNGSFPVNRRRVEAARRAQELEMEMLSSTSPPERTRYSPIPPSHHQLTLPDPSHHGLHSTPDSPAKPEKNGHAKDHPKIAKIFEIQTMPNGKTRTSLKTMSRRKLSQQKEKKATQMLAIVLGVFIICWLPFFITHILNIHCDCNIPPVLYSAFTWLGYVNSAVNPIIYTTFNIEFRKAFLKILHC
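PathHunter D2 cells, attached overnight at 37 deg C, received compound in DMSO plus dopamine at EC20 (50 nM final) for 90 min at 37 deg C. Beta-arrestin recruitment was read as luminescence after 1 h with detection reagent at ambient temperature.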
Sfp PPTase inh – Sfp phosphopantetheinyl transferase inhibition | Q9F4F7 | Biochemical Sfp PPTase activity, qHTS | Potency, µM, inactives show max response, negative = inhibition, hits mostly inhibitors | 310,000 compounds, 3.5% hits | AID 1490; active = well fitted inhibition curve with a large enough effect; inconclusive = small, poorly fitted or top-dose-only effect, or another doubt; inactive = no such curve, though single readings can be large or run the other way;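 also: the enzyme is Sfp with the accession as filed and its product quenches rhodamine fluorescence; potency is read from the fitted curve at half-maximal effect; 0% = enzyme reaction without inhibitor and -100% = no enzyme wells; top concentration of the series not given in the record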
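With Hepes-Na pH 7.6 buffer containing 10 mM MgCl2, Sfp (15 nM) modified BHQ-2-YbbR (12.5 uM) using rhodamine-CoA (5 uM). Two reads 30 minutes apart at 525/598 nm yielded each well's rate.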
gsp antag – antagonizes gsp, the McCune-Albright syndrome mutation | Potency, µM (doses to about 76.9 µM), for the others: at the top dose activity change, negative = inhibition, usual class: inhibitors | gsp-mutant cells, cAMP HTRF, 30 min; control for the full effect not named in the record | 340,000 compounds, 0.4% hits; active = falling curve of any shape with a large fitted effect; inconclusive = falling curve, mostly with a smaller effect; inactive = flat or rising curve; cell line not stated here;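 also: intracellular cAMP measured with PDE inhibitor Ro 20-1724 present during compound exposure; potency is read from the fitted curve at half-maximal effect; % is scaled to controls: 0 for no effect and ±100 for the full control effect; nearly all actives have a fitted effect of over 65% in size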
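Cells, 2000/well, grown 16–24 h in DMEM 10% FBS with 0.5 mg/ml G418, then compounds plus […] (300 uM addition stock), 30 min at 37C. cAMP read by HTRF (cAMP-d2 and anti-cAMP antibody-K in lysis buffer) after 30 min RT.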
ClpP mod – qHTS Assay for Activators of ClpP; 340,000 compounds, 1.9% hits; ATP-dependent Clp protease proteolytic subunit (Bacillus subtilis (strain 168)), P80244; purified B. subtilis ClpP, FRET peptide cleavage, 20 min; Potency, µM (series often up to 57.5 µM), for inactives: at the highest dose activity change, negative = active; active = well fitted falling curve with a large enough effect; inconclusive = small, poorly fitted or top-dose-only effect; inactive = no such curve, though single readings can be large or run the other way; also: potency is read from the fitted curve at half-maximal effect; the source files actives as falling curves though it sought activators and does not explain the sign; nearly all actives have a fitted effect of over 65% in size; many hits overshoot -100%
Target sequence (P80244 whole entry, looked up): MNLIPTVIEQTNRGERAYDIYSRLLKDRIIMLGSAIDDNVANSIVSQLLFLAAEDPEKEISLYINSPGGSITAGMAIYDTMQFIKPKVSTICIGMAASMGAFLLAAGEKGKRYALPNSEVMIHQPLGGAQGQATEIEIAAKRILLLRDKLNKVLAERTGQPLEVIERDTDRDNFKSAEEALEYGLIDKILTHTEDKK
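ClpP 10 microg/mL final, pH 8 Tris/KCl buffer with BSA, glycerol, Tween-20; compound pinned in; FRET-FV substrate; RT 20 min; Ex320/Em430; ΔFRET vs ADEP 5.8 microM, DMSO, no enzyme.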
TRPV1 PAM – potentiators of human vanilloid receptor 1 (TRPV1) | TRPV1-expressing cells, Fluo-8 calcium influx, capsaicin EC20 potentiation; host cell line not named in the record; control for the full effect not named in the record | Q8NER1 | potentiation, % at 8.33 µM | 320,000 compounds, 0.02% hits; active means potentiation above 80%; inconclusive means 30% to 80%; inactive means below 30%; also: 0% is about no effect
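Cells expressing TRPV1 were dye-loaded with Fluo-8 and read kinetically: 10 s baseline, 3 min after compound (agonist portion), then 2 min after EC20 capsaicin (allosteric enhancer portion). Calcium-bound dye fluorescence at 480/520 nm.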
* marks the source's active call; other numbers are inactive results; ? = inconclusive; nt = not tested or not shown; & = joins results of further samples; [ ] = remark or other dose. Outcome played no part in choosing rows; 5.1% or so of the library scored in one or more.

Every second line gives: gsp ag, Menin-MLL FL inh, D2 potentiator, Sfp PPTase inh, gsp antag, ClpP mod, TRPV1 PAM
Cc1c(C)c2ccc(OC(C)C(=O)NCCc3c[nH]c4ccccc34)cc2oc1=O (stereo not given)
→ nt, -3.3, -14, -5%, -7%, -6.2%, 1
CCc1c(C)nc(SCC(=O)NNC(=O)Cc2ccc(OC)cc2)[nH]c1=O
→ -10%, 0.2, -3, -13%, 5%, 0.3%, -10
O=C(c1cc2c(ccc3ccccc32)oc1=O)N1CCCC1
→ -4%, 1.6, -9, 6%, 1%, -9.2%, 18
CC(CN1CCOCC1)OC(=O)CCc1ccccc1 (stereo not given)
→ -10%, -3.9, 0, 9%, 7%, nt, -3
COCC1CCCCN1C(=O)c1cccc(OC2CCN(C(=O)C3CC3)CC2)c1 (stereo not given)
→ ?, nt, -8, 12%, 2%, 1.3%, -7
CCCCN(CCO)c1ncnc2sc(-c3ccccc3)cc12
→ 23%, 9.1, -14, -17%, -9%, 3.9%, -5
CCOC(=O)c1cc(-c2ccc(F)cc2)n(CCC(=O)NC2CCN(Cc3ccccc3)CC2)c1C
→ 8%, -1.1, -8, 3%, -12%, -3.5%, -6
CCOc1ccc(C2c3[nH]c4ccccc4c3C[C@H]3C(=O)N(C4CCN(Cc5ccccc5)CC4)CC(=O)N23)cc1OC (stereo not given in full)
→ -8%, 10, -4, -8%, 2%, -1.9%, 3
COc1ccc(CN(C(=O)c2oc3ccccc3c2C)C2CCS(=O)(=O)C2)cc1OC (stereo not given)
→ ?, 0.7, 10, 14%, -11%, -1.5%, -2
Cc1nc2ccccc2n1Cc1ccccc1
→ -43%[inhibitor], -1.6, 3, -1%, -10%, -1.4%, 5
CNC(=O)c1cc(NC(=O)CCn2nc(-c3ccc(C)cc3)c3ccccc3c2=O)ccc1OC
→ 18%, 1.7, -7, 3%, ?, nt, -29
O=C(c1cc(S(=O)(=O)N2CCCCC2)ccc1F)N1CCCCC1
→ 21%, 1.0, 0, 6%, 4%, -2.7%, 1
CN(C)CCN(C(=O)c1ccc2c(c1)OCCO2)c1nc2c(Cl)cccc2s1
→ 8%, -0.2, -44, -6%, 4%, 1.0%, -1
Cc1cc(C)n2nc(S(=O)(=O)NC3CCCCC3)nc2n1
→ 10%, 4.2, -3, 19%, 9%, -0.8%, ?
Cc1ccc(N(Cc2ccccc2F)S(C)(=O)=O)c(C)c1
→ 32%, 0.1, 0, -3%, -2%, nt, -5
O=C1CSC(c2cn(-c3ccccc3)nc2-c2cc3ccccc3oc2=O)N1Cc1ccco1 (stereo not given)
→ 18%, 6.6, -8, -20%, -6%, 32µM*, 0
O=C(O)CCc1nc(-c2ccccc2)no1
→ 12%, -2.3, 0, 19%, -2%, -0.2%, -5
NC1=NC(=O)/C(=C/c2ccc(Br)cc2)S1
→ -16%, 3.2, 2, 22%, 1%, 1.2%, 11
CC(C)CC(=O)Nc1nnc(S(=O)(=O)N(C)c2ccc(Cl)cc2)s1
→ 12%, -1.4, -2, 14%, -3%, -1.4%&-2.8%, 4
COc1ccccc1N1CCN(C2CCC(C)CC2)CC1 (stereo not given)
→ -24%, -1.6, -2, 9%, 2%, -0.1%, 6

Some of the entries above in a different format:
mol	gsp ag	Menin-MLL FL inh	D2 potentiator	Sfp PPTase inh	gsp antag	ClpP mod	TRPV1 PAM
O=C(c1cc(S(=O)(=O)N2CCCCC2)ccc1F)N1CCCCC1	21%	1.0	0	6%	4%	-2.7%	1
Cc1ccc(N(Cc2ccccc2F)S(C)(=O)=O)c(C)c1	32%	0.1	0	-3%	-2%	nt	-5
O=C1CSC(c2cn(-c3ccccc3)nc2-c2cc3ccccc3oc2=O)N1Cc1ccco1 (stereo not given)	18%	6.6	-8	-20%	-6%	32µM*	0
CCCCN(CCO)c1ncnc2sc(-c3ccccc3)cc12	23%	9.1	-14	-17%	-9%	3.9%	-5

(listing goes on)
Every second line gives: gsp ag, Menin-MLL FL inh, D2 potentiator, Sfp PPTase inh, gsp antag, ClpP mod, TRPV1 PAM
CCCCc1nnc(NC(=O)CS(=O)(=O)Cc2ccccc2)s1
→ 1%, 5.2, -2, 9%, -14%, 0.3%, -6
Cc1cc(N(C)/N=C/c2ccccc2)nc(-c2ccccc2O)n1
→ 13%, -0.7, 1, ?, -6%, -8.4%, 10
Clc1ccccc1Sc1ccc(-c2ccccn2)s1
→ 9%[15.4 µM], -2.7, -3, -4%, -14%, -1.1%, 3
O=C(N/C(=C/c1ccccc1)C(=O)N1CCOCC1)c1ccc([N+](=O)[O-])cc1
→ -3%[15.4 µM], 2.2, 1, -14%, -1%, nt, 0
COc1ccccc1NC(=O)C1CCCN(c2ncnc3c2nc2n3CCCCC2)C1 (stereo not given)
→ 28%, 1.4, 8, 3%, -9%, nt, -15
CCN1C(=O)CC(NCc2ccc(S(N)(=O)=O)cc2)C1=O (stereo not given)
→ -21%, -8.9, -1, 12%, 11%, -2.0%, 2
COC(=O)c1c(-c2ccccc2)[nH]c(-c2nccc3ccccc23)c1C(=O)OC
→ -63%[inhibitor], nt, -8, nt, nt, 3.5%, nt
COc1ccc(NC(=O)c2nnn(Cc3ccc(SC)cc3)c2N)c(OC)c1
→ -104%[inhibitor], -4.1, 1, 7%, 5%, 3.9%, 29
Cc1ccc(C(=O)/C=C2\NCCNC2=O)cc1
→ -9%, 3.3, -11, -8%, -2%, -0.4%, -18
COC(=O)C(C(=O)OC)=C(/C=C/N(C)C)N(C)C
→ -23%, 0.1, 2, 6%, 5%, -0.3%, 5
Cc1ccc(/C=c2\s/c(=C(/C#N)C(=O)N3CCCC3)n(Cc3ccco3)c2=O)s1
→ -8%, ?, 4, 13µM*, -17%, -1.6%, nt
CCc1ccc(/C=C2\SC(=S)N(CCC(=O)Nc3cc(C)on3)C2=O)cc1
→ 1%[15.4 µM], ?, -8, 13%, 1%, nt, -5
O=C(NN/C(=N/S(=O)(=O)c1ccc(Cl)cc1)c1ccccc1)c1ccc(O)cc1
→ -8%[15.4 µM], 4.2, 3, 14%, 6%, -2.0%, -17
S=C(NCCc1ccccc1)Nc1nccs1
→ -34%[inhibitor], nt, -15, nt, 6%, -1.1%, -10
COc1ccc(S(=O)(=O)N(C)C[C@H]2Oc3c(cccc3N(C)C)C(=O)N([C@H](C)CO)C[C@@H]2C)cc1
→ 4%, nt, -5, nt, -9%, 1.8%, nt
O=C(NC(=S)Nc1ccc(Br)cc1F)C1CCCCC1
→ -1%[15.4 µM], nt, -16, nt, -2%, -3.1%, nt
Cc1ccc(NC(=O)COC(=O)[C@H](C)NC(=O)c2ccccc2)cc1S(=O)(=O)N1CCOCC1
→ -9%, 0.9, -3, 12%, -16%, -1.2%, 17
Cc1ccc(C)c(SCc2noc(C(=O)NCC3CCCO3)c2C(=O)O)c1 (stereo not given)
→ nt, 2.2, -20, 3%, -1%, 1.0%, -2
COc1ccc(CNC(=O)C(c2ccco2)N(Cc2ccccc2)C(=O)Cc2cccs2)cc1 (stereo not given)
→ -20%, 1.2, 4, 20%, -3%, -0.7%, -5
N#Cc1c(SCc2ccccc2)sc(C(=O)c2ccccc2)c1N
→ 9%, 2.9, -1, ?, 6%, 3.8%, -9

Results in Sfp PPTase inh and gsp antag (5 entries from above):
| SMILES | Sfp PPTase inh | gsp antag |
| --- | --- | --- |
| O=C(NN/C(=N/S(=O)(=O)c1ccc(Cl)cc1)c1ccccc1)c1ccc(O)cc1 | 14% | 6% |
| Clc1ccccc1Sc1ccc(-c2ccccn2)s1 | -4% | -14% |
| COc1ccccc1NC(=O)C1CCCN(c2ncnc3c2nc2n3CCCCC2)C1 (stereo not given) | 3% | -9% |
| Cc1cc(N(C)/N=C/c2ccccc2)nc(-c2ccccc2O)n1 | ? | -6% |
| S=C(NCCc1ccccc1)Nc1nccs1 | nt | 6% |

Going on with the list.
Every second line gives: gsp ag, Menin-MLL FL inh, D2 potentiator, Sfp PPTase inh, gsp antag, ClpP mod, TRPV1 PAM
COC(=O)C1=C(C)N(C)C(C)=C(C(=O)OC)C1c1ccc(C(=O)OC)cc1
→ -7%, -1.1, 11, 4%, -1%, 5.7%, -5
O=C(CSc1nnc(-c2c[nH]c3ccccc23)o1)N(Cc1ccccc1)c1ccc(F)cc1
→ -46%[inhibitor], 3.3, -5, 15%, -8%, -19%, 5
C=CCN(C(=O)c1csnn1)C(C(=O)NC1CCCC1)c1ccccc1 (stereo not given)
→ 31%, 6.3, -3, 14%, 8%, nt, 3
COc1ccc(NC(=O)COc2coc(CN3CCc4ccccc43)cc2=O)cc1
→ ?, nt, 6, nt, 10%, -3.1%, -6
COc1ccc(CNC(=O)CCS(=O)(=O)Cc2cccc(Cl)c2)c(OC)c1
→ 6%, -0.8, -5, 7%, 1%, -1.4%, 13
O=C(NCc1ccc(C(F)(F)F)cc1)C1CC(c2cccc(F)c2)=NO1 (stereo not given)
→ nt, 0.9, -11, 1%, 8%, -1.7%, -4
Cc1ccc(NC(=O)C2CCCN(C3=NS(=O)(=O)c4ccccc43)C2)c(O)c1 (stereo not given)
→ -11%, nt, 1, nt, -1%, -3.2%, 2
O=C(NC1CC1)c1ccc(CS(=O)(=O)c2c(Cl)cccc2Cl)o1
→ 25%, -0.1, -4, 9%, -5%, 1.6%, nt

Single records, from the list above. Screens in order: gsp ag | Menin-MLL FL inh | D2 potentiator | Sfp PPTase inh | gsp antag | ClpP mod | TRPV1 PAM
COc1ccc(NC(=O)COc2coc(CN3CCc4ccccc43)cc2=O)cc1 as listed: ? | nt | 6 | nt | 10% | -3.1% | -6
C=CCN(C(=O)c1csnn1)C(C(=O)NC1CCCC1)c1ccccc1 (stereo not given) as listed: 31% | 6.3 | -3 | 14% | 8% | nt | 3
